Bioassay records as filed in PubChem BioAssay.
A1 inh: inhibitors of the anti-apoptotic protein A1, read as caspase activation; MEF A1-2A-BIM cells, Caspase-Glo 3/7 luminescence, 3 h; percent of clofoctol response, vehicle zero; actives 0.066% (n = 330,000); caspase activation, % (test concentration not listed);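 active = over half of replicate activation scores above 10%, or exactly half above 10 with the replicate mean above 10; inconclusive = replicate mean below 10 yet half the replicates above 10; inactive = over half of replicates below 10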;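 note: wells of about 30 µL received 50 nL stock; many hits fall short of the cut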
Beta2AR agonist: human beta-2 adrenergic receptor agonism by FAP. P07550. Am2.2-beta2AR cells, FAP receptor internalization, flow cytometry; reference of the scale not given here. response, % (no concentration beside the values). actives 0.43% (n = 340,000);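 active = response above a set limit, near 3 SD of response in nonfluorescent compounds, cut at about 42% in these data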;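 note: stock transfer was 100 nL into about 11 µL; a reference agonist was the positive control; negative values mostly stem from fluorescent compounds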
T cruzi repl: blocks replication of Trypanosoma cruzi | AID 1885 | actives 1.4% (n = 300,000) | T. cruzi beta-gal in NIH3T3, luminescence, 90 h | inhibition, % (concentration not given with the values);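 active = mean inhibition across valid replicates above about 55%, limit read from the data; inconclusive = mean below that limit but half or more replicates reach it; inactive = mean below it, under half of replicates reach it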;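 note: signal also drops with host cell toxicity which is not excluded here; 0% = plate median of DMSO wells and 100% = zero luminescence signal; higher percent means less beta-gal luminescence so fewer parasites; stock transfer was 50 nL into about 50 µL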
LANA-H2B inh: blocks KSHV LANA binding to histone H2A/H2B | Q9QR71 | cell-free LANA-H2A/H2B peptide, fluorescence polarization | inhibition, % (concentration not given with the values) | actives 0.6% (n = 320,000); in the data active = inhibition mostly above about 10%, no sharp cut-off; inactive = mostly below about 6.7%;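 note: stock transfer was 7.5 nL into about 10 µL; 0% = median of vehicle wells and 100% = median of positive control wells; one replicate is shown; the record names a cut of 25% in any replicate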
Target sequence (Q9QR71 whole entry, looked up): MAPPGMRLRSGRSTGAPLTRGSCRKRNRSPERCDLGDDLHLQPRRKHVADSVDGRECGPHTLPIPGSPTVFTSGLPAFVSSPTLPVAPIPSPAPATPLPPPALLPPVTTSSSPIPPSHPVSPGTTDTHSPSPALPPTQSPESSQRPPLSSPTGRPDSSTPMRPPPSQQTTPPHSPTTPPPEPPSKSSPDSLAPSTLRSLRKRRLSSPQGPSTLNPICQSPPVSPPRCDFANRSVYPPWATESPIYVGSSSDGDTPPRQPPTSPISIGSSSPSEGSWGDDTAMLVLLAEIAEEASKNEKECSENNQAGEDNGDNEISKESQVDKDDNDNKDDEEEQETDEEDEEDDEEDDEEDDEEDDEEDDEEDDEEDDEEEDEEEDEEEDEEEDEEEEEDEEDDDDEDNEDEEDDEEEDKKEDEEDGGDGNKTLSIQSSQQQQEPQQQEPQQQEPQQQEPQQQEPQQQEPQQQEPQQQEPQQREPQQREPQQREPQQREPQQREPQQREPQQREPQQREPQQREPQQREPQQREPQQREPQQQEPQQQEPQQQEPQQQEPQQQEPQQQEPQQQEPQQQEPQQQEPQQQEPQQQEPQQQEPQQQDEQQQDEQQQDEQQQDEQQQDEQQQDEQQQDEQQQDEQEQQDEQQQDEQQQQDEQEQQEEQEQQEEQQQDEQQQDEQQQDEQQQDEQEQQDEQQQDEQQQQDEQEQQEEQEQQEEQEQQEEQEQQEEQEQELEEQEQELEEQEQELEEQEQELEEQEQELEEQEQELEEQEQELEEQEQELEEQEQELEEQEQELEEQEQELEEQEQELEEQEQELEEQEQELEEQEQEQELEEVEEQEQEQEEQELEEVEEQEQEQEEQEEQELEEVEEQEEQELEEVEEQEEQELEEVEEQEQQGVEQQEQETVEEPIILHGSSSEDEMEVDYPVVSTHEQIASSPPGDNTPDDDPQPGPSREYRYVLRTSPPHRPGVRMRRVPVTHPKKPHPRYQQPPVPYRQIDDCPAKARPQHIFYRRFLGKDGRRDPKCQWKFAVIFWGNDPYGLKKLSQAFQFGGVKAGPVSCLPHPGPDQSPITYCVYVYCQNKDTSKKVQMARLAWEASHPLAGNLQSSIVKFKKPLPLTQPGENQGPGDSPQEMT
Beta cell apopt: beta cell apoptosis inhibition. protection from apoptosis, % (no concentration beside the values). actives 0.8% (n = 300,000). AID 435005. INS-1E cytokine-induced death, ATP luminescence, 48 h; percent of positive-control rescue, neutral wells zero;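 active = all replicates at 75% or more, or half of them and the mean; inconclusive = half reach 75% but not the mean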;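 note: 0% = cytokine-treated negative control wells and 100% = positive control rescue; higher means more ATP so stronger rescue from cytokine killing; wells of about 40 µL received 100 nL stock; the first replicate is given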
Calb FLC: affects C. albicans growth with fluconazole; growth inhibition, % (no concentration beside the values); C. albicans CaCi-2 (fluconazole-resistant clinical isolate) + fluconazole, Alamar Blue growth, 48 h; AID 1979; actives 0.57% (n = 300,000);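 active = most replicates above 75%; inconclusive = exactly half above 75%; inactive = most below 75%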;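 note: all wells also contain fluconazole at 8 µg/ml as a sub-toxic cotreatment; 0% = median of DMSO wells and 100% = median of geldanamycin control wells; wells of about 8 µL received 7.5 nL stock; the first replicate is given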
UCH37 inh: blocks the human deubiquitinase UCH37 | AID 588478 | Q9Y5K5 | actives 0.33% (n = 330,000) | purified proteasome/UCH37, Ub-AMC cleavage fluorescence | inhibition, % (test concentration not listed);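 active = mean of two replicates above 20%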;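 note: 0% = compound-free wells with enzyme and 100% = wells lacking proteasome; stock transfer was 100 nL into about 20 µL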
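Signal – fluorescence, ex 355 nm, em 460 nm · System – Proteasome-bound UCH37 · Input – 0.15 nM proteasome as dispensed · Timing – 30 min preincubation with enzyme, 25 min cleavage at room temperature · Read-out basis – percent inhibition of cleavage signal versus uninhibited and no-proteasome wells · Medium – Tris-HCl pH 7.4 with ATP-MgCl2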
RanGTP-Impb inh: disruptors of Ran-importin-beta complex formation – biochemical, FRET, CFP-Ran, YFP-importin-beta, homogeneous, primary screen; cell-free CFP-Ran/YFP-importin-beta FRET ratio; inhibition, % (no concentration beside the values); actives 1.1% (n = 300,000);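 active = most replicates above 15%; inconclusive = exactly half above 15%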;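 note: 0% = DMSO wells and 100% = Ran loaded with GDP instead of GTP; wells of about 40 µL received 100 nL stock; the first replicate is given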
An asterisk follows results filed as active; ? = inconclusive; . = no result given. Random draw from the library; overall some 4.3% were active at least once.

no.	Compound	T cruzi repl	Calb FLC	Beta2AR agonist	UCH37 inh	A1 inh	Beta cell apopt	RanGTP-Impb inh	LANA-H2B inh
1	O/N=C/c1ccc(OCC(O)COc2ccc(/C=N/O)cc2)cc1	8	?	10	.	0.4	6	2.7	.
2	O=C(NCCCN1CCOCC1)c1cc(-c2cccc(O)c2)on1	-7	3	7	0.7	0.9	-9	1.3	5.0
3	CC(C)CC(c1nnnn1C1CCCC1)N1CCC(C(N)=O)CC1 (configuration not stated)	-4	-15	15	4.5	0.2	.	?	-1.7
4	COC(=O)c1ccc2c(=O)n(CCCCCC(=O)N3CCN(c4ccc(F)cc4)CC3)c(=O)[nH]c2c1	10	-11	21	3.3	0.0	-3	-0.3	4.8
5	CC(C)(C)[C@H]1C=C(C(=O)N2CCN(Cc3ccccc3)CC2)O[C@@H](OCCCCO)C1	24	2	-7	-2.1	-0.2	-3	2.2	2.8
6	O=[N+]([O-])c1cccc(/C([O-])=C(/C(=S)Nc2ccccc2)[n+]2ccccc2)c1	-4	-5	-5	7.3	0.2	2	-4.6	-5.5
7	CCN(CC)CCCn1c2c(c(SCC(=O)Nc3cccc(C(C)=O)c3)nc1=O)CCC2	22	1	-2	3.6	0.7	-7	2.5	-2.3
8	CSc1ccc(CNC(=O)C(C)n2nc(C)c3c(C)n(-c4ccccc4)nc3c2=O)cc1 (configuration not stated)	26	-2	-2	0.4	0.3	-2	-0.6	-4.3
9	COc1ccc(NS(=O)(=O)c2cccc(N3CC(O)=C(c4ccccc4)C3=N)c2)cc1	-12	-11	-2	3.0	1.2	-5	-4.1	2.5
10	O=C(Nc1ccnn1C1CCN(Cc2cccc(O)c2)CC1)C1CCCC1	-14	3	-5	3.1	0.3	.	2.1	0.4
11	COc1ccc(OCCSc2ccc(S(=O)(=O)N3CCCC3)cn2)cc1	.	.	-13	0.3	1.0	0	.	4.2
12	O=C(O)c1ccc2c(c1)C(=O)N(c1ccc(/C=C/C(=O)c3ccccc3)cc1)C2=O	-11	15	5	8.6	0.2	8	-3.7	1.1
13	CN(C)CCN(C(=O)CCc1ccccc1)c1nc2c(F)cc(F)cc2s1	52	-2	-9	3.2	1.0	-8	0.4	-4.5
14	COc1ccc(N2CCN(C(=O)CNS(=O)(=O)c3ccc(C)c(C)c3)CC2)cc1	3	35	-6	-0.5	-0.5	1	4.6	0.0
15	O=C(O)C1CCCCC1C(=O)N1CCCC1 (configuration not stated)	-19	-8	-4	1.5	0.2	1	4.4	-9.1
16	Cc1cc(SCC(=O)c2cccs2)n2nc(C)c(-c3ccccc3)c2n1	7	?	-1	2.3	0.1	10	0.2	-0.5
17	COc1cc(C2C(C(=O)c3ccco3)=C(O)C(=O)N2c2cc(C)on2)ccc1OCc1ccccc1 (configuration not stated)	-13	5	.	.	0.2	4	-1.5	2.8
18	CC(=O)c1cc2c(s1)-c1cc(F)ccc1OC2	11	-8	-12	-295	0.1	-8	-39	1.9
19	COC(=O)C1C2C=CC3(CN(c4cccc(C)c4)C(=O)C13)O2 (configuration not stated)	-23	1	6	1.8	0.4	-5	-1.4	-0.6
20	C=CCc1ccccc1OCCSc1nc2ccc([N+](=O)[O-])cc2s1	-19	6	-2	3.5	-0.2	7	-3.4	0.4
21	O=C(c1ccc(Br)c([N+](=O)[O-])c1)N1CCN(Cc2ccccc2)CC1	7	5	3	4.5	0.6	.	?	-2.0
22	Cc1cc(C(=O)CCl)c(C)n1-c1cccc([N+](=O)[O-])c1	.	-3	6	4.7	-0.7	-9	3.0	0.5
23	CCOC(=O)c1cccc(NC(=O)C2(S(=O)(=O)c3ccc(C)cc3)CC2)c1	-5	18	4	2.4	0.4	.	-1.1	2.8
24	COc1ccc(CC(=O)OCC(=O)c2ccc(S(=O)(=O)N3CCCCC3)cc2)cc1	.	.	-3	-4.3	0.7	-6	.	-3.1
25	Cc1ccc(-c2nc(CN3CCCCC3CCN3CCCC3=O)c(C)o2)o1 (configuration not stated)	-19	7	4	0.1	-0.5	-1	1.2	-4.3
26	CCCNC(=O)C(NS(=O)(=O)c1cccc2nsnc12)c1ccccc1 (configuration not stated)	-8	?	0	2.2	0.2	-3	-2.6	11
27	CC(=O)C[C@@H](O)CC(=O)[C@@H]1OC(=O)CCCCCCc2ccccc21	.	.	-2	0.7	-1.0	-2	.	-1.4
28	Cc1ccc(-c2nnn(C/C(N)=N/O)n2)cc1	-1	1	12	4.7	-0.3	-5	3.2	-0.3
29	CC(=O)Nc1ccc(S(=O)(=O)N2CCN(C(=O)c3ncoc3-c3ccccc3)CC2)cc1	11	-4	-8	6.2	.	.	-2.7	.
30	OCC1=C[C@@H](O)[C@@H]2C=CO[C@@H](O[C@@H]3O[C@H](CO)[C@@H](O)[C@H](O)[C@H]3O)[C@H]12	.	.	1	-0.4	0.3	-2	.	2.1
31	Cc1c(NC(=O)COC(=O)c2ccc(F)c(S(=O)(=O)N3CCOCC3)c2)c(=O)n(-c2ccccc2)n1C	-6	-16	-5	-0.7	0.2	-1	4.9	-2.8
32	CCCC(=O)N(c1ccccc1)C1C=CS(=O)(=O)C1 (configuration not stated)	-22	20	1	4.5	0.2	2	5.8	-5.5
33	Fc1ccc(Nc2nc(-c3ccncc3)cs2)cc1	47	-9	27	0.8	0.1	-8	-0.7	-0.7
34	COc1cc(C(=O)NNC(=O)c2cc(C)[nH]n2)cc(OC)c1OC	2	-13	-4	0.1	0.3	1	1.9	2.7
35	c1ccc2sc(NN=C3CCCC3)nc2c1	17	-8	-5	3.1	-0.7	6	-0.6	-3.8
36	COC(=O)Cc1[nH]n(-c2nc3ccccc3s2)c(=O)c1C(C)=Nc1ccc(Cl)cc1	-10	16	-4	1.7	-9.1	7	2.4	1.7
37	CCCCNC(=S)N/N=C/C1=CCC2CC1C2(C)C (configuration not stated)	36	11	1	.	0.3	24	1.0	0.1
38	O=C(Nc1nnc(-c2ccc3c(c2)CCCC3)o1)C1COc2ccccc2O1 (configuration not stated)	-1	1	5	-2.3	0.3	-4	-1.0	-4.4
39	COc1ccc(Cc2nc3ccc(C(=O)N4CCOCC4)cc3o2)cc1	-10	-7	-3	4.3	-1.1	-4	-0.7	-1.0
40	Cc1cccc2c3c([nH]c12)CCN(C)C3	12	-8	-3	0.0	?	0	4.9	4.8
41	CCC(C)NC(=O)Cn1cccc1C(=O)c1ccccc1 (configuration not stated)	0	4	0	1.8	0.4	0	-2.2	1.5
42	COc1ccc(NC(=O)CN(C)C(C)C(=O)NC(=O)NC2CCCCC2)cc1 (configuration not stated)	5	3	-3	0.2	0.0	1	?	-3.4
43	CC(C)(C)NC(=O)CSc1nnc(-c2ccccc2)c(-c2ccccc2)n1	5	3	6	3.7	-0.1	-3	3.7	-3.5
44	CN(C)S(=O)(=O)c1ccc(C(=O)Nc2ccccc2OC(F)(F)C(F)F)cc1	.	-4	15	1.9	-0.3	-4	5.7	14
45	O=C1NC[C@@H](Cc2cccc3ccccc23)N(CCCCC2CCCCC2)C1=O	-5	28	7	.	-0.1	0	1.8	9.7
46	CCOC(=O)N1CCN(c2nc(-c3ccco3)cc(C(F)(F)F)n2)CC1	8	-3	3	-7.8	-0.2	6	-1.8	0.0
47	CN(C)/C=N/c1ncc(C(=O)OC(C)(C)C)s1	-9	12	6	.	0.7	-3	-2.5	.
48	Cc1ccc(NC(=O)CC(NCC2CCCO2)C(=O)O)cc1C (configuration not stated)	-4	0	1	0.8	2.8	-1	-2.6	-3.5

At a glance, part of the list above:
no.	Compound	T cruzi repl	Calb FLC	Beta2AR agonist	UCH37 inh	A1 inh	Beta cell apopt	RanGTP-Impb inh	LANA-H2B inh
44	CN(C)S(=O)(=O)c1ccc(C(=O)Nc2ccccc2OC(F)(F)C(F)F)cc1	.	-4	15	1.9	-0.3	-4	5.7	14
45	O=C1NC[C@@H](Cc2cccc3ccccc23)N(CCCCC2CCCCC2)C1=O	-5	28	7	.	-0.1	0	1.8	9.7
46	CCOC(=O)N1CCN(c2nc(-c3ccco3)cc(C(F)(F)F)n2)CC1	8	-3	3	-7.8	-0.2	6	-1.8	0.0
47	CN(C)/C=N/c1ncc(C(=O)OC(C)(C)C)s1	-9	12	6	.	0.7	-3	-2.5	.
48	Cc1ccc(NC(=O)CC(NCC2CCCO2)C(=O)O)cc1C (configuration not stated)	-4	0	1	0.8	2.8	-1	-2.6	-3.5

(cont.)
no.	Compound	T cruzi repl	Calb FLC	Beta2AR agonist	UCH37 inh	A1 inh	Beta cell apopt	RanGTP-Impb inh	LANA-H2B inh
49	O=C(CSc1nnc2ccccn12)NNC(=O)c1ccc(Cl)cc1	-15	-6	-4	.	-0.1	-8	0.8	-2.7
50	COc1cc(CNC(C)c2ccccc2)cc(Br)c1OCc1ccc(F)cc1 (configuration not stated)	55*	-5	7	3.4	0.9	113*	-2.2	-5.5
51	CCCn1c(SCC(=O)c2ccc3c(c2)OCCO3)nc2c1c(=O)n(C)c(=O)n2C	-22	1	2	3.5	.	.	-1.8	.
52	CCOc1ccc2oc(C(=O)N(CC)CC(=O)Nc3ccc(NC(C)=O)cc3)c(C)c2c1	.	.	-1	-5.4	?	-6	.	9.8
53	Cc1ccc(S(=O)(=O)NC(=O)c2cc(C)n(-c3ccccc3)c2C)cc1	-8	3	-3	1.7	0.5	-7	0.2	-4.6
54	COc1cc(NC(=S)NC(C)(C)C)c(OC)cc1Cl	16	-8	-4	.	0.0	2	11	1.4
55	COc1cc(N/N=C/c2ccc(N(C)C)cc2)ncn1	-9	19	0	.	-8.4	3	?	-4.5
56	O=C(NC1CCCCC1)c1ccc(Br)o1	-5	3	9	-0.6	0.3	-8	1.8	2.0
57	CCCCNCCOCCOc1ccc(C)cc1[N+](=O)[O-]	20	-26	-3	5.0	0.4	-3	0.5	-9.0
58	CCN(CC(=O)Nc1c(F)cccc1F)C(=O)c1cnccn1	-1	12	2	1.0	0.8	1	?	-11
59	CCCCOc1c(Br)cc(CNCCCN2CCOCC2)cc1OC	46	-2	-1	0.0	0.9	6	0.7	-3.5
60	CCc1ccccc1OCC(=O)OCC(=O)N1CC(=O)Nc2ccccc21	-20	-25	16	3.7	-0.3	-2	2.5	-3.3
61	Nc1nnc(-c2ccc(Cl)cc2)o1	-4	1	-7	5.8	-0.5	-4	3.9	2.4
62	N#Cc1ccccc1N=Cc1ccc(Br)cc1	-3	-1	3	1.9	0.2	-1	2.1	0.8
63	CC(=O)N1N=C(c2cccs2)CC1c1cccs1 (configuration not stated)	2	-2	5	-0.9	0.1	.	-0.1	0.0
64	COc1cc2c(cc1OC)CN(C(=O)c1cc(C3CC3)nn1-c1ccccc1)CC2	.	.	-9	-1.7	0.0	-4	.	2.2
65	O=c1oc2cc(OCCO)ccc2c2c1CCCC2	-4	7	-5	-95	0.0	1	5.6	2.3
66	COc1ccc(-c2nnc(SC(C)C(=O)Nc3nccs3)n2Cc2ccccc2)cc1OC (configuration not stated)	15	6	-10	4.0	-0.4	0	5.9	2.6
